From PubChem
GLA inh pH 4.5: qHTS Assay for Inhibitors of Human alpha-Galactosidase at pH 4.5. Alpha-galactosidase A (Homo sapiens), P06280. activity change, negative = inhibition, % at 105 µM. 230,000 tested, under 10 active. purified enzyme, 4-MU-alpha-Gal fluorescence, pH 4.5; inconclusive = small, poorly fitted or top-dose-only inhibition, or a rising curve; inactive = flat fitted curve, though single readings scatter; no compound was filed as active;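 also: 0% = full activity with enzyme and -100% = basal without enzyme; dose as in the result columns while the protocol names 77 µM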
Target sequence (P06280 whole entry, looked up): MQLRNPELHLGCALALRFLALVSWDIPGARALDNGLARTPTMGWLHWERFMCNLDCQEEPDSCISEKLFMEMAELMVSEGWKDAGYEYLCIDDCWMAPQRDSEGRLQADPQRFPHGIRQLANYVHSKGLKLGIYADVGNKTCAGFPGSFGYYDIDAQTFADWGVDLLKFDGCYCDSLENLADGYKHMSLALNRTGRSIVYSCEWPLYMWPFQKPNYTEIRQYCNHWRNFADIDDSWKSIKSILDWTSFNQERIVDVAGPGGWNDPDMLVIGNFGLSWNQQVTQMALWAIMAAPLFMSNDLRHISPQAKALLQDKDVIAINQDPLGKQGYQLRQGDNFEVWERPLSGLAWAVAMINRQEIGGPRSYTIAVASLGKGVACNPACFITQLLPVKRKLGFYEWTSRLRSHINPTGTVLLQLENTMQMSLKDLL
miR-21 FLuc: qHTS Assay for Modulators of miRNAs and/orActivators of miR-21 | HeLa miR-21 FLuc reporter, luciferase, 48 h | Potency, µM (titrated, usually from 38.3 µM), for the others: at the top dose reporter change, positive = more light | 340,000 tested, under 10 active; active = well fitted rising curve with a large enough effect; inconclusive = small, poorly fitted or top-dose-only effect; inactive = no such curve, though single readings can be large or run the other way;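 also: % of control where 0% means no effect; miR-21 action dims this reporter so a rising signal means less miR-21 action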
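Compounds were titrated across several concentrations (up to approximately 40 uM) and incubated 48 hours with HeLa miR-21-FLuc reporter cells (miR-21 target sequence downstream of FLuc, endogenous miR-21). Readout was firefly luciferase luminescence after lytic detection reagent.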
* = called active by the depositor; u = inconclusive; x = no result given; & = joins results of further samples. Only part of the results is shown. The share of hits here may be higher or lower than overall.

Structure | miR-21 FLuc | GLA inh pH 4.5
CNc1ccnc(-c2ccccc2C(F)(F)F)n1 | x | 3
COCCNc1nc(C)nc2c1nc(-c1ccccc1)n2CCN1CCCC1 | x | -17
COc1ccc2c(c1)C(=O)[C@H](OC(=O)N[C@H]1CCCc3ccccc31)[C@@H](c1ccc(OC)c(Br)c1)O2 | x | -3
Cc1noc(C)c1-c1nccc(-n2ccnc2)n1 | x | -14
COC(=O)CC1C(C)(C)C(O)C2CC3=C4C=C(OC)OC(c5ccoc5)[C@]4(C)CCC3[C@@]1(C)C2=O (some centres undefined) | x | 1
COc1ccc(-c2nc(-c3ccccc3)oc2Nc2ccccc2C)cc1 | x | -4&1
CCCCC(=O)NCCc1c(Cc2ccccc2)[nH]c2ccccc12 | x | -9
COC(=O)[C@@H]1C[C@H]1[C@@H](NC(=O)c1ccc(Br)cc1)c1ccccc1 | x | 4

In a second layout: 3 of the compounds above
COC(=O)CC1C(C)(C)C(O)C2CC3=C4C=C(OC)OC(c5ccoc5)[C@]4(C)CCC3[C@@]1(C)C2=O (some centres undefined)
  miR-21 FLuc: x	GLA inh pH 4.5: 1

COc1ccc(-c2nc(-c3ccccc3)oc2Nc2ccccc2C)cc1
  miR-21 FLuc: x	GLA inh pH 4.5: -4&1

CCCCC(=O)NCCc1c(Cc2ccccc2)[nH]c2ccccc12
  miR-21 FLuc: x	GLA inh pH 4.5: -9

Next section
Structure | miR-21 FLuc | GLA inh pH 4.5
CC(C)[C@@H](CC(=O)N[C@@H]1CCNC[C@H]1C(=O)N[C@H](CC(=O)N[C@@H](CCC(=O)O)CC(=O)O)Cc1c[nH]c2ccccc12)NC(=O)C[C@H](Cc1ccccc1)NC(=O)[C@@H]1CNCC[C@H]1N | x | -1
NCCOB(c1ccccc1)c1ccccc1 | x | 3&3&-1
c1ccc(-c2nc(-c3cccc4ccccc34)c(NC3CCCCC3)o2)cc1 | x | 2
CNc1nc(-c2ccccc2OC)nc2ccccc12 | x | 2
COc1cccc([C@@H]2Oc3ccc(OC)cc3C(=O)[C@H]2OC(=O)NC2CCCC2)c1 | x | -4
COc1cc(OC)cc(-c2sc3ccccc3c(=O)c2I)c1 | x | -10
COc1ccc(NC(=O)CSc2oc(-c3cccs3)nc2S(=O)(=O)c2ccccc2)c(OC)c1 | 17% | x
COc1cc(NC(=O)CN2c3ccccc3S(=O)(=O)c3ccccc32)cc(OC)c1 | -5% | x

Arranged by molecular weight (high to low): some entries from above.
Structure | miR-21 FLuc | GLA inh pH 4.5
CC(C)[C@@H](CC(=O)N[C@@H]1CCNC[C@H]1C(=O)N[C@H](CC(=O)N[C@@H](CCC(=O)O)CC(=O)O)Cc1c[nH]c2ccccc12)NC(=O)C[C@H](Cc1ccccc1)NC(=O)[C@@H]1CNCC[C@H]1N | x | -1
COc1ccc(NC(=O)CSc2oc(-c3cccs3)nc2S(=O)(=O)c2ccccc2)c(OC)c1 | 17% | x
COc1cc(OC)cc(-c2sc3ccccc3c(=O)c2I)c1 | x | -10
COC(=O)[C@@H]1C[C@H]1[C@@H](NC(=O)c1ccc(Br)cc1)c1ccccc1 | x | 4
c1ccc(-c2nc(-c3cccc4ccccc34)c(NC3CCCCC3)o2)cc1 | x | 2
CCCCC(=O)NCCc1c(Cc2ccccc2)[nH]c2ccccc12 | x | -9
NCCOB(c1ccccc1)c1ccccc1 | x | 3&3&-1

(more compounds)
Structure | miR-21 FLuc | GLA inh pH 4.5
COc1cccc(NS(=O)(=O)c2ccc3c(c2)CCCN3C(=O)C2CCC2)c1 | u | x
COc1ccc(C(=O)c2cn(Cc3ccccc3F)c3cc4c(cc3c2=O)OCO4)cc1 | 8% | x
Cc1cccc(CNC(=O)c2oc3c(c2C)-c2nn(Cc4ccccc4Cl)cc2CC3)c1 | -17% | x
Cc1ccc(-n2c(=O)c3c(C)c(C(=O)N(C)C)sc3n(CC(=O)N(C)c3ccccc3)c2=O)cc1C | 3% | x
Cc1ccc(-c2onc(C)c2C)cc1S(=O)(=O)Nc1ccc(Cl)cn1 | -16% | x
COc1cc(OC)c(NC(=O)CCc2c(C)nc3cc(-c4ccccc4OC)nn3c2C)cc1Cl | 15% | x
Cc1nn(C(=O)c2cccc(Cl)c2)c(C)c1S(=O)(=O)N1CCOCC1 | -1% | x
Cc1nnc(NC(=O)CSc2nnc3c(n2)[nH]c2ccccc23)s1 | -1% | x

Continued.
Structure | miR-21 FLuc | GLA inh pH 4.5
O=C(c1ccc(Cl)cc1)N(Cc1ccco1)Cc1ccco1 | 14% | x
COc1ccc(-c2nc3sc(CCNC(=O)c4ccc(C(C)(C)C)cc4)c(C)n3n2)cc1 | -39% | x
O=C(NCc1ccc(Cl)cc1)NC1COc2ccccc2C1 (centres undefined) | 5% | x
COc1ccc(NC(=O)C(NS(=O)(=O)c2cccc3nsnc23)C(C)C)cc1 (centres undefined) | 7% | x
Cc1nc2nc(CNC(=O)c3cccc(F)c3)nn2c(C)c1CCC(=O)Nc1ccc(F)cc1 | 0% | x
COc1ccccc1CNC(=O)c1ccc2c(c1)N(Cc1cc(C)ccc1C)C(=O)c1ccccc1S2 | -5% | x
COc1ccc(NC(=O)CSc2nc3ccccc3c(=O)n2CCC(=O)NC2CCCCC2)c(OC)c1 | 2% | x
CC(C)(C)c1ccc2c(c1)N(CC(=O)NCCCN1CCN(c3ccccc3F)CC1)C(=O)CO2 | 22% | x

(next part)
Structure | miR-21 FLuc | GLA inh pH 4.5
CN(C)c1ccc(NC(=O)Cn2c(SCc3ccc(F)cc3)nc3ccncc32)cc1 | -16% | x
O=C(Cn1c(-c2cccs2)cc2cc(F)ccc21)N1CCN(c2ccccc2)CC1 | 3% | x
COc1cccc(C(=O)Nc2cccc(OCc3cc(=O)n4cccc(C)c4n3)c2)c1 | -3% | x
O=S(=O)(NCc1nc2cccnc2n1Cc1ccc(F)cc1)c1ccc(Cl)s1 | 0% | x
NCc1nc2cccnc2n1Cc1ccccc1Cl | 1% | x
COC(=O)c1cnn(-c2ccc(C(=O)Nc3cc(OC)c(OC)c(OC)c3)cc2)c1N | 16% | x
COc1ccc(N2CCN(CCCNC(=O)c3sc4ncccc4c3-n3cccc3)CC2)cc1 | 11% | x
CCN1CCN(C(c2ccccc2Cl)c2sc3nc(-c4ccco4)nn3c2O)CC1 (centres undefined) | -7% | x

(list continues)
Structure | miR-21 FLuc | GLA inh pH 4.5
CC(C)Oc1ccc(CNC(=O)Cn2nc(N3CCN(c4ccccc4)CC3)ccc2=O)cc1 | 15% | x
COc1cc(C2CC(=O)Oc3c2c(=O)[nH]c2ccccc32)cc(OC)c1OC (centres undefined) | 1% | x
Cc1nnc(SCc2nc(-c3ccc(Cl)cc3)no2)n1-c1ccc(F)cc1 | 3% | x
CCc1ccc(NC(=O)CCCc2nnc3n(CC(C)C)c(=O)c4sccc4n23)cc1 | 4% | x
COc1ccc(C2CC(=O)N(CC(=O)Nc3ccc(C)c(Cl)c3)c3ccccc3S2)cc1OC (centres undefined) | 12% | x
CCn1cc(C(=O)NCCc2ccc(Cl)cc2)c(=O)c2cc(S(=O)(=O)N(C)C3CCCCC3)ccc21 | -6% | x
COc1ccc(C)cc1NC(=O)CSc1nc(=O)[nH]c2c1CCCC2 | 29% | x
CC(=O)c1cccc(NC(=O)CSc2nnc3ccc(-c4ccc(C)cc4)nn23)c1 | -7% | x

Next section.
Structure | miR-21 FLuc | GLA inh pH 4.5
CC(=O)c1ccc(N2CCN(c3ncnc4onc(C)c34)CC2)cc1 | 11% | x
O=C(C1CCN(S(=O)(=O)c2ccc(Br)s2)CC1)N1CCN(c2cccc(Cl)c2)CC1 | 23% | x
CCOC(=O)c1cc2c(=O)n3ccccc3nc2n(CCOC)c1=NC(=O)c1cc2ccccc2o1 | -7% | x
Cc1ccc(CN2c3ccccc3-c3nc(SCC(=O)NCCc4ccccc4)ncc3S2(=O)=O)cc1 | 12% | x
CCc1cc(=O)oc2c(C)c(OCC(=O)Nc3ccc(S(=O)(=O)N(CC)CC)cc3)ccc12 | -1% | x
Cc1c(C(=O)N(C)C)sc2c1c(=O)n(-c1ccccc1C(F)(F)F)c(=O)n2Cc1ccccc1C#N | -1% | x
COc1ccccc1CNC(=O)C(Cc1ccccc1)NS(=O)(=O)c1ccc2c(c1)oc(=O)n2C (centres undefined) | 5% | x
CCCCN(CC)C(=O)c1cc2c(=O)n3ccccc3nc2n1C | -3% | x

As entered above:
Cc1ccc(CN2c3ccccc3-c3nc(SCC(=O)NCCc4ccccc4)ncc3S2(=O)=O)cc1 @ miR-21 FLuc = 12%
Cc1c(C(=O)N(C)C)sc2c1c(=O)n(-c1ccccc1C(F)(F)F)c(=O)n2Cc1ccccc1C#N @ miR-21 FLuc = -1%
CCCCN(CC)C(=O)c1cc2c(=O)n3ccccc3nc2n1C @ miR-21 FLuc = -3%

(list continues)
Structure | miR-21 FLuc | GLA inh pH 4.5
O=C(Nc1cc(Cl)ccc1Cl)c1cc(S(=O)(=O)N2CCCc3ccccc32)ccc1F | -1% | x
CCN(C(=O)CCc1nc(-c2ccc(C)cc2)no1)c1cccc(C(F)(F)F)c1 | -1% | x
Cc1ccc(-n2c(SCC(=O)NCc3ccccc3)nc3n[nH]c(C)c3c2=N)cc1Cl | 0% | x
Cc1ccc(NC(=O)Cn2c(=O)oc3cc(S(=O)(=O)N4CCCC4)ccc32)cc1F | -21% | x
CC(=O)N1CCCc2cc(S(=O)(=O)N(C)CC(=O)Nc3ccc(C)cc3C)ccc21 | 0% | x
CCN(CC)C(=O)C1CCCN(c2ncnc3c2nc2n3CCCCC2)C1 (centres undefined) | -5% | x
Cc1nc2c(C(=O)NCCc3ccc(Cl)cc3)cnn2c(C)c1Cc1ccc(F)cc1 | 2% | x
CCOC(=O)N1CCc2c(sc3c2c(=O)n(Cc2ccccc2)c(=O)n3CC(=O)Nc2cccc(CC)c2)C1 | -2% | x

Going on with the list:
Structure | miR-21 FLuc | GLA inh pH 4.5
Cc1ccc(Cl)cc1NC(=O)CCCn1c(=O)c2cccn2c2cccnc21 | -5% | x
COC(=O)c1cc(NC(=O)CCc2c(C)nc3c(c(C)nn3C(C)(C)C)c2C)cc(C(=O)OC)c1 | -1% | x
O=C(Nc1ccccc1C(F)(F)F)c1cc2nc(-c3ccccc3)cc(-c3ccccc3)n2n1 | -6% | x
Cc1ccc(CN2CCN(C3CCNCC3)C(=O)C2=O)cc1 | -2% | x
CC(C)CC(=O)Nc1ccccc1OCc1cc(=O)n2ccccc2n1 | -1% | x
Cc1oc(-c2cccc(Cl)c2)nc1CN1CCC(C(=O)NC(C)c2ccccc2)CC1 (centres undefined) | -3% | x
Cc1nc2c(C(=O)O)cnn2c(C)c1Cc1ccccc1 | 0% | x
Cc1ccccc1NC(=O)c1sc2nc3c(cc2c1N)CCCC3 | -16% | x

The list goes on:
Structure | miR-21 FLuc | GLA inh pH 4.5
O=C(NC1CCCC1)c1ccc(CSc2nc3cccnc3n2Cc2cccc(F)c2)cc1 | 7% | x
COC(=O)c1cc2sc(C)cc2n1Cc1cccc(OC)c1 | 17% | x
COc1ccc(Cl)cc1NC(=O)CCN1C(=O)c2ccccc2Sc2ncccc21 | -10% | x
COc1cc(OC)c(NC(=O)Cn2cnc3sc(C)c(S(=O)(=O)N4CCC(C)CC4)c3c2=O)cc1Cl | 1% | x
COc1ccc(OCc2ccc(-c3nc(C#N)c(N4CCC(C(N)=O)CC4)o3)o2)cc1 | 2% | x
Cc1ccccc1CNC(=O)C1CCCN(S(=O)(=O)N(C)c2ccc(F)cc2)C1 (centres undefined) | 16% | x
CN(CC(=O)Nc1ccc(OC(F)(F)F)cc1)S(=O)(=O)c1ccc2c(c1)CCC(=O)N2 | 22% | x
Cc1ccc(S(=O)(=O)c2nnn(CC(=O)Nc3ccccc3C)c2N)cc1 | -5% | x

(cont.)
Structure | miR-21 FLuc | GLA inh pH 4.5
Cc1ccc(Cl)cc1N1CCN(C(=O)c2cnc3c(-c4ccc(F)cc4)c(C)nn3c2C)CC1 | 0% | x
CCOc1ccccc1NC(=O)N1CCc2cc(S(=O)(=O)N3CCC(C)CC3)ccc21 | 0% | x
CC(=O)Nc1ccc(S(=O)(=O)Nc2cc(-c3cn4ccccc4n3)ccc2C)cc1 | -38% | x
CC(C)CC(=O)Nc1nc2nc(-c3ccccc3)cc(=O)n2[nH]1 | 5% | x
COc1ccc(CCCc2nnc(SCC(=O)Nc3ccccc3F)o2)cc1C | -17% | x
CCOc1ccc(CCNC(=O)Cn2nc(C)n3c(cc4occc43)c2=O)cc1OCC | -2% | x
COc1ccc(-c2cn3c(n2)sc2cc(C(=O)NCc4ccccc4)ccc23)cc1 | -2% | x
CCC(=O)Nc1ccccc1-c1nc2ccccc2n(Cc2cccc(Br)c2)c1=O | 4% | x

Other compounds follow:
Structure | miR-21 FLuc | GLA inh pH 4.5
CCC(C)NC(=O)c1cc2c(Cl)nc3ccc(C)cc3c2s1 (centres undefined) | -6% | x
Cc1ccc(NC(=O)CSc2nc3c(c(=O)[nH]2)CN(Cc2ccccc2)CC3)cc1Cl | 27% | x
COc1ccc(NC(=O)CSc2nc3ccccc3n2CC(=O)N2CCCCC2C)cc1 (centres undefined) | -1% | x
COc1ccc(OC)c(C2N=C(N)Nc3nc4ccccc4n32)c1 (centres undefined) | -1% | x
